Compound activity (PubChem)
BasE inh: BasE siderophore enzyme inhibitors, primary screen, biochemical, Acinetobacter baumannii ATCC 17978, fluorescence polarization | inhibition, % (test concentration not listed) | 0.1% of 84,000 active | purified BasE, fluorescence polarization binding displacement;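 active = both replicates above 25% with normal brightness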;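 also: 0% = negative plate control signal and 100% = positive plate control signal; stock transfer was 100 nL into about 30 µL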
KSHV LANA nucl: inhibitors of KSHV LANA-nucleosome binding, primary screen, biochemical, fluorescence polarization, FITC-LANA1-23, chicken nucleosomes. z-score (no concentration beside the values). FITC-LANA1-23 / chicken nucleosome fluorescence polarization; hits give low values. AID 720717, 2013. 0.3% of 51,000 active;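 active = both repeat wells score below -2 in polarization z-score versus plate sample wells, excluding overly bright wells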;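 also: 100 nL library stock added to about 30 µL; numbers are from one replicate; some results filed as inactive read as strong as hits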
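Assay system: purified chicken nucleosomes with FITC-labelled LANA N-terminal peptide (1-23) / Probe or stimulus: 50 nM FITC-LANA1-23 probe / Compound dosing: pin-transferred compound, 100 nL / Times: compound with peptide–nucleosome mix 10–45 min at room temperature / Technique: fluorescence polarization, 480 nm excitation, 535 nm parallel and perpendicular emission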
The depositor's hits bear a star; . = not tested or not shown; & = joins results of further samples. A portion of the library (hit frequency here may not be typical).

SMILES | BasE inh | KSHV LANA nucl
O=C(CCSc1nc(-c2ccco2)cc(C(F)(F)F)n1)NC1CC1 | -2.9 | 0.11
O=C(C1COc2cc(S(=O)(=O)N3CCOCC3)ccc2O1)N1CCOCC1 (stereo not given) | -1.5 | 0.28
Cn1c(SCCn2c(=S)n(C)c3ccccc32)nc2ccccc21 | -1.1 | -1.2
Cc1onc(-c2c(F)cccc2Cl)c1C(=O)OCC(=O)NC1CC1 | 4.8 | .
S=C(Nc1ccccc1)N1CCCC1 | 1.8 | -0.76
C=CCN=C1CCCc2c1[nH]c1ccc(C)cc21 | -1.9 | .
Nc1cc(N)nc(SCC(=O)Nc2ccccc2)n1 | -3.2 | 2.7
CC(C)OC(=O)CCN1C(=O)/C(=C/c2ccccc2)SC1=S | 1.5 | .
O=C(CSc1n[nH]c(-c2ccncc2)n1)N(c1ccccc1)C1CCCCC1 | 0.1 | .
CC(O)C(O)(c1ccccc1)c1ccccc1 (stereo not given) | -2.2 | 0.51
Cc1nc2ccccc2c2oc(C(=O)NCc3ccc(Cl)cc3)cc12 | -2.8 | -0.31
COc1ccccc1OCCSc1nc(C)cc(C)n1 | -1.3 | -0.31
O=C(Nc1ccc(S(=O)(=O)NC2=NCCCCC2)cc1)c1cccs1 | 1.9 | .
Cc1cc(-c2onc(C)c2-c2noc(C)n2)no1 | -0.5 | 0.35
CCOC(=O)NN1CC(O)=C(c2nc3ccccc3n2C)C1=N | 0.0 | .
CC1CC(C)CN(C(=O)C(C)Sc2nnnn2-c2ccc(Cl)cc2)C1 (stereo not given) | 1.1 | .
CN(C)C(=O)Cn1c(=O)cnc2ccccc21 | 0.5 | .
Cc1c(C(=O)NCCc2ccc(S(N)(=O)=O)cc2)sc2nc(-c3ccccc3)cn12 | -1.9 | -0.75
O=C1CCC/C(=N/NC(=O)c2ccc(NS(=O)(=O)c3cccs3)cc2)C1 | -1.0 | .
CN(C(=O)COC(=O)c1ccccc1NS(C)(=O)=O)C1(C#N)CCCCC1 | 0.5 | .
COC(=O)c1ccc(NC(=O)CSC2=Nc3ccccc3C3CC=NN23)cc1 (stereo not given) | 0.6 | .
Cc1ccc(CCNc2ccccc2C)cn1 | -3.0 | 0.2
C[C@H]1O[C@@H](n2cc(F)c(=O)[nH]c2=O)[C@H](O)[C@@H]1O | . | -0.34
O=C(Cn1c(=O)n(Cc2ccco2)c(=O)c2sc3ccccc3c21)NCc1ccccc1 | -2.1 | -0.26
CC(C)[C@H](NC(=O)COc1ccc2ccccc2c1)C(=O)O | 2.5 | .
O=C(CC1C(=O)N(Cc2ccccc2)C(=S)N1CCc1ccc(Cl)cc1)Nc1ccccc1 (stereo not given) | 0.1 | .
O=C(COc1ccc(-c2nnco2)cc1)Nc1ccc2c(c1)OC(F)(F)O2 | -1.9 | .
Cn1cccc1/C=C/C(=O)O | 3.3 | .
Cc1nc2cc(NC(=O)N3CCCC3)ccc2n1C | -1.8 | 0.047
CCCC1O[C@@H]2C[C@H]3[C@@H]4CCC5=CC(=O)C=C[C@]5(C)[C@H]4[C@@H](O)C[C@]3(C)[C@]2(C(=O)CO)O1 (stereo not given in full) | -0.7 | 0.21
CC(C)CN(Cc1c(O)ccc2c1oc(=O)c1ccccc12)CC(C)C | -0.4 | .
Cc1ccccc1C(=O)NC(=S)NC1CCSC1=O (stereo not given) | 1.0 | -0.75
O=C(NCc1ccco1)C(c1ccco1)N(C(=O)Cn1nnc2ccccc21)c1ccccc1 (stereo not given) | -0.4 | -0.061
COc1ccc(CNCC(C)NCc2ccc(OC)c(OC)c2)cc1OC (stereo not given) | -0.9 | .
Cc1cccc(Oc2ccc(Cl)cc2N)c1 | 0.5 | .
O=C(/C=C/N1CCOCC1)C(F)(F)F | 1.5 | -0.17
Cc1nn(-c2cc(C(F)(F)F)ccc2Cl)c(=O)c2noc(C)c12 | -0.6 | -0.77
O=C(CSc1nc2ccccc2s1)c1cc2ccccc2o1 | -3.2 | -0.63
O=C(CN1C2=NCCCN2c2ccccc21)c1ccc(Br)s1 | -0.4 | .
O=C(Nc1sc2c(c1C(=O)NCCc1ccccc1)CCC2)c1ccco1 | 3.0 | -0.54
Cn1cccc1Cc1nnc(SCC(=O)Nc2ccccc2F)n1CCc1ccccc1 | -1.7 | -0.81
CN1CCC(N)=NC1=O | -1.4 | .
Cc1ccc(S(=O)(=O)Nc2ccc(F)cc2)cc1C(=O)N(C)CCO | -0.2 | .
CCCn1c(N)cc(=O)n(CCC)c1=O | 1.5 | .
CC(=O)NCC(=O)OCc1ccc(COC(=O)CNC(C)=O)cc1 | 1.5 | .
O=C(O)c1ccccc1C(=O)Nc1cccnc1 | 3.5 | -0.55
CCC(O)(CCN1CCCCC1)c1ccccc1 (stereo not given) | -2.0 | 1.5
O=C(CC1Nc2ccccc2NC1=O)Nc1ccccc1C(F)(F)F (stereo not given) | -1.6 | 0.94
CSc1nc2ccc(I)cc2c(=O)n1C | 6.2 | 0.23
COc1ccc(C)cc1-n1nnnc1SCC(=O)N1CCC(C(=O)Nc2nccs2)CC1 | -0.9 | .
CCCn1c(=N)c(C(=O)OC)cc2c(=O)n3ccccc3nc21 | 0.3 | .
N#CCCn1cc(/C=C2\NC(=S)NC2=O)c(-c2ccc3c(c2)OCO3)n1 | -1.1 | .
O=c1c2cnn(CCO)c2ncn1Cc1ccc(C(F)(F)F)cc1 | -1.3 | 0.14
O=C(/C=C/c1cccs1)OCc1nc2ccc(Cl)cc2n1CCO | 0.0 | .
Cc1cccc(-c2n[nH]c(S(C)(=O)=O)c2C#N)c1 | 0.1 | .
Cc1cc(C)nc(-n2nc(C)cc2NC(=O)CNC(C)c2ccccc2)n1 (stereo not given) | 4.5 | .
Cc1cc(=O)oc2cc(OCc3nnc(-c4ccccc4)o3)ccc12 | 0.3 | 0.41
COC(=O)c1ccc(COC(=O)c2n[nH]c3ccccc23)o1 | -3.2 | .
Cc1c2c(c(C#N)c3nc4ccccc4n13)CCCC2 | 2.2 | .
NC(N)=Nc1nc(-c2ccc(-c3ccccc3)cc2)cs1 | 1.5 | .

Next part.
SMILES | BasE inh | KSHV LANA nucl
COC(=O)c1ccccc1NC(=O)c1cc2cccnc2n(C)c1=O | 1.1 | -0.34
CC(/C=C/c1ccc(Cl)cc1)=N\O | 0.3 | .
Cc1oncc1C(=O)NC1CCCCC1 | . | -0.25
CCCOC(=O)c1ccc(NC(=O)CO/N=C/c2nc3cc(Cl)ccc3o2)cc1 | -2.9 | .
CCC(Oc1ccc(Br)cc1)C(=O)Nc1nccc(C)n1 (stereo not given) | 0.8 | -0.75
COc1cc(C(=O)OCCCCN2C(=O)c3ccccc3C2=O)cc(OC)c1OC | -0.5 | .
NNC(=O)/C(=C\c1ccccc1)CCO | 2.5 | -1
COc1ccc(C(CNC(=O)c2ccccc2)N(C)C)cc1 (stereo not given) | 0.0 | .
O=C(CCCN1C(=O)/C(=C\c2ccco2)SC1=S)NC1CCCCC1 | 0.5 | -0.74
CCc1c(C#N)c(N)nc2sc(C(=O)Nc3ccc(Br)cc3)c(N)c12 | 0.3 | .
C=CCc1cccc(Cl)c1OCCSc1ncccn1 | 2.5 | -0.78
CCOC(=O)c1cc2c(nc1N)CC(C)(C)OC2 | 0.9 | -0.42
Cc1ccc(C)c(N2C(=O)N(Cc3ccccc3Cl)C3CS(=O)(=O)CC32)c1 (stereo not given) | 0.6 | .
Cc1ccc(C2=NN(C(=O)CSc3ccc4c(c3)OCCO4)C(c3ccco3)C2)cc1 (stereo not given) | -0.7 | .
Cn1cnc(S(=O)(=O)Nc2ccccc2N2CCOCC2)c1 | -0.3 | .
CCOC(=O)c1cc2occc2n1CC(=O)N(C(C)C)C(C)C | -1.0 | 0.69
Cc1ccc2c(CN3CCN(S(=O)(=O)c4ccccc4)CC3)cc(=O)oc2c1C | -0.8 | .
CC(C)(C)c1cc(NC(=O)COc2ccc(Cl)cc2Cl)on1 | 1.2 | .
Cc1ccc(N=c2scc(-c3cccs3)n2CCCN2CCOCC2)cc1 | -3.0 | 2.1
CCOC(=O)N1CCN(C(=O)COC(=O)C2=C(Nc3ccccc3)OCC2=O)CC1 | 1.6 | .
Cc1nn(CC(=O)NCCSCc2ccco2)c(C)c1Br | 3.2 | 0.39
COc1cccc(OC)c1OC(=O)c1cc(C)ccc1C | 0.6 | .
CC(C)N(CC(N)=O)C(=O)/C=C/c1ccc(Cl)c(Cl)c1 | 1.0 | .
COc1cc2c(cc1OC)CN(S(=O)(=O)c1c(C)nn(C)c1C)CC2 | 3.5 | .
O=S(=O)(NC1CC1)c1ccc(S(=O)(=O)N2CCCc3ccccc32)cc1 | -1.8 | -0.61
CC(=N/O)/C(=N\O)c1ccc(C)o1 | 0.2 | -0.069
CC1=CCC2CC1C(c1ccccc1)OC2(C)C (stereo not given) | 2.6 | .
CCCS(=O)c1ccc2nc(NC(=O)OC)[nH]c2c1 (stereo not given) | . | 0.5
CCN(CC)Cn1nc2c3c(cccc3c1=O)-c1ccccc1-2 | 1.7 | .
Cn1cnnc1Sc1nc2ccccc2nc1Cl | 2.1 | .
CCN(CC)c1nc(C(F)(F)F)nc2c1nnn2Cc1ccccc1 | 0.8 | -1.4
CCS(=O)(=O)c1ccc(S(=O)(=O)CC)s1 | -0.3 | 0.53
CCS(=O)(=O)CCc1nnc(NC(=O)Nc2cccc(C(F)(F)F)c2)s1 | 1.1 | .
Cc1ccc(S(=O)(=O)N2CCN(CC(=O)c3c(C)[nH]c4ccccc34)CC2)cc1 | 1.6 | .
COc1ccc(/C=N/NC(C)(C)C)cc1O | 1.4 | .
COc1ccc(-c2nn3cnnc3s2)cc1 | 1.4 | 1.3

Part of the list above in another layout.
Value order – BasE inh	KSHV LANA nucl
COc1cccc(OC)c1OC(=O)c1cc(C)ccc1C
 : 0.6	.
CC(C)N(CC(N)=O)C(=O)/C=C/c1ccc(Cl)c(Cl)c1
 : 1.0	.
COc1cc2c(cc1OC)CN(S(=O)(=O)c1c(C)nn(C)c1C)CC2
 : 3.5	.
O=S(=O)(NC1CC1)c1ccc(S(=O)(=O)N2CCCc3ccccc32)cc1
 : -1.8	-0.61
CC(=N/O)/C(=N\O)c1ccc(C)o1
 : 0.2	-0.069
CC1=CCC2CC1C(c1ccccc1)OC2(C)C (stereo not given)
 : 2.6	.
CCCS(=O)c1ccc2nc(NC(=O)OC)[nH]c2c1 (stereo not given)
 : .	0.5
CCN(CC)Cn1nc2c3c(cccc3c1=O)-c1ccccc1-2
 : 1.7	.
Cn1cnnc1Sc1nc2ccccc2nc1Cl
 : 2.1	.
CCN(CC)c1nc(C(F)(F)F)nc2c1nnn2Cc1ccccc1
 : 0.8	-1.4
CCS(=O)(=O)c1ccc(S(=O)(=O)CC)s1
 : -0.3	0.53
CCS(=O)(=O)CCc1nnc(NC(=O)Nc2cccc(C(F)(F)F)c2)s1
 : 1.1	.
Cc1ccc(S(=O)(=O)N2CCN(CC(=O)c3c(C)[nH]c4ccccc34)CC2)cc1
 : 1.6	.
COc1ccc(/C=N/NC(C)(C)C)cc1O
 : 1.4	.
COc1ccc(-c2nn3cnnc3s2)cc1
 : 1.4	1.3

Continuation.
SMILES | BasE inh | KSHV LANA nucl
CN(C)S(=O)(=O)c1ccc2oc3nnc(SCCCC(=O)N4CCOCC4)n3c2c1 | 2.3 | .
COc1ccc2oc(-c3ccc(NC(=S)NC(=O)COc4ccccc4)cc3)nc2c1 | 3.5 | 0.084
Cc1cc(OCc2nnc(SCC(=O)OC(C)C)o2)ccc1Cl | -0.7 | 0.54
Cc1cc2nc3s/c(=C/c4ccc5c(c4)OCO5)c(=O)n3c2cc1C | 0.1 | 0.086
CC(C)CC(=O)n1nc(-c2cccnc2)nc1NCc1ccccc1 | 0.8 | -1.2
CNC[C@@H](O)c1ccc(O)c(O)c1 | -1.6 | -0.39&-0.97
Cc1csc2sc(C=NCc3cccs3)c(C)c12 | 2.6 | .
CC(Sc1nncn1C)C(=O)c1ccc(C(C)(C)C)cc1 (stereo not given) | -2.8 | .
CC(C)(C)c1cc(NS(=O)(=O)c2ccc3c(c2)OCCO3)on1 | -4.9 | .
Cc1c2c(n3c(nc4ccccc43)c1C#N)N(C1CCCC1)CC2 | 0.9 | -0.12
Cc1nn(-c2ccccc2)c(C)c1/C=C/C(=O)OCC(=O)Nc1c(C#N)oc2ccccc12 | 0.4 | .
O=C(CN1CC(C(=O)N2CCOCC2)Oc2ccccc21)Nc1ccccc1C(=O)NC1CCCC1 (stereo not given) | -0.2 | .
O=C(c1ccccc1)N1CCN(CC(O)COc2ccc(Cl)cc2Cl)CC1 (stereo not given) | -1.0 | .
Cc1ccc2c(n1)sc1c(O)cc(=O)[nH]c12 | 0.1 | 0.22
CCOC(=O)N1CCC(NC(=O)c2cc(S(=O)(=O)NCCc3ccccc3)ccc2F)CC1 | 0.0 | 0.42
N#CC(c1cccc(C(F)(F)F)c1)N1CCOCC1 (stereo not given) | . | 0.045
C=CCN(C)C1CC(=O)N(c2ccc(C)c(Cl)c2)C1=O (stereo not given) | 0.8 | -0.59
COc1c(C(=O)NC(=S)NCc2ccco2)cc2ccccc2c1Br | 3.4 | 0.2
CN1C(=S)N(C2CCCCC2)C(=O)/C1=C/c1ccccc1O | 1.1 | .
Cc1ccc2nc(COC(=O)/C=C/c3c(C)nn(C4CCS(=O)(=O)C4)c3Cl)cc(=O)n2c1 (stereo not given) | -0.4 | .
CCOC(=O)c1cnn(-c2ncnc3c2cnn3C)c1C(F)(F)F | 2.2 | -0.4
